2A StopGo = FMDV 2A StopGo reporter, luciferase signal. human cells with a luciferase reporter of 2A StopGo recoding; control for the full effect not named in the record. actives 1.2% (n = 410,000). Potency, µM (highest dose often 57.9 µM), for the others: at the highest dose signal change, negative = less light; active = well fitted falling curve with a large enough effect; inconclusive = small, poorly fitted or top-dose-only effect; inactive = no such curve, though single readings can be large or run the other way; tested in HEK293T cells; also: % is scaled to controls: 0 for no effect and ±100 for the full control effect; nearly all actives have a fitted effect of over 45% in size; luciferase light after 4 h
Marburg entry inh = Marburg virus entry inhibition | Potency, µM (doses to about 37.8 µM), without a hit: at the highest dose activity change, negative = inhibition, actives largely listed as inhibitors | actives 1.8% (n = 300,000) | Marburg virus pseudotyped entry inhibition, cell reporter; control for the full effect not named in the record; about a third of the inactives were read at about 46 µM; active = well fitted inhibition curve with a large enough effect; inconclusive = small, poorly fitted or top-dose-only effect, or effect the other way; inactive = flat fitted curve, though single readings scatter; tested in HEK293 cells; about a fifth of its hits are not listed in these tables; also: % is scaled to controls: 0 for no effect and ±100 for the full control effect; luciferase read-out
NS1 inh = blocks influenza NS1 protein function. S. cerevisiae slowed by influenza A NS1, growth recovery by OD600. Potency, µM (top dose mostly 46.1 µM), for the others: at the top dose activity, positive = more growth. actives 0.4% (n = 270,000). AID 2326; active means well fitted rising curve with a large enough effect; inconclusive means small, poorly fitted or top-dose-only effect; inactive means no such curve, though single readings can be large or run the other way; also: nearly all actives have a fitted effect of over 50% in size
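In this qHTS, NS1 from influenza A is expressed in budding yeast, where it slows growth. Cells are switched from glucose to 2% galactose medium (pH 6.0, -URA), treated with compound, and growth recovery is read at OD600.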
Cruzain inh Det = cruzain (T. cruzi) inhibition with detergent; P25779; purified cruzain, Z-FR-AMC fluorescence, 0.01% Triton; Potency, µM, inactives show max response, negative = inhibition, usual class: inhibitors; actives 0.43% (n = 200,000);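 also: plate controls were neutral wells for no effect and buffer without enzyme for full effect; nearly all actives have a fitted effect of over 40% in size; top concentration of the series not given in the record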
Target sequence (P25779 123-467 limits assumed): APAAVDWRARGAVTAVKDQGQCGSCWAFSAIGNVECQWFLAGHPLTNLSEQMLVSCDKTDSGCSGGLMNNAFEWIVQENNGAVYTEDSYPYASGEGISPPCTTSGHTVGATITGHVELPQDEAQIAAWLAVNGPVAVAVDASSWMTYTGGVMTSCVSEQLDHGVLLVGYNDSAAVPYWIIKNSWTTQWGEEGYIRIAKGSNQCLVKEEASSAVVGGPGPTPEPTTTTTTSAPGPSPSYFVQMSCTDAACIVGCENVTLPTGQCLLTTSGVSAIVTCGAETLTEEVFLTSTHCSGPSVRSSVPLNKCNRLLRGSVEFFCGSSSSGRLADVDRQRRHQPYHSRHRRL
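Detergent-containing run (0.01% Triton X-100) in acetate buffer pH 5.5 with 5 mM DTT: enzyme at 1.5 nM final, 15 min compound preincubation at room temperature, then 2 uM Z-FR-AMC substrate. Activity taken as 60 s fluorescence increase at 360/450 nm.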
RE007 growth inh = less growth of the S. pombe RE007 Vpr strain; S. pombe RE007 Vpr strain, BacTiter-Glo ATP luminescence, 24 h; control for the full effect not named in the record; actives 0.21% (n = 360,000); Potency, µM (top dose mostly 92.2 µM), inactives show at the highest dose activity change, negative = less growth; active = well fitted falling curve with a large enough effect; inconclusive = small, poorly fitted or top-dose-only effect; inactive = no such curve, though single readings can be large or run the other way;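 also: % is scaled to controls: 0 for no effect and ±100 for the full control effect; nearly all actives have a fitted effect of over 50% in size; the assay follows cell death caused by Vpr and the record does not say whether a fall means rescue or toxicity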
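Fission yeast strain RE007, carrying one chromosomally integrated HIV-1 vpr copy, was seeded at OD 0.01 in PMG+AL medium with 23 nL pinned compound. After 24 h at 30 °C and 99% humidity, viability was read by BacTiter-Glo luminescence.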
Lassa entry inh = blocks Lassa virus binding to or entry into cells; Lassa virus pseudotype entry inhibition, cell reporter; control for the full effect not named in the record; Potency, µM (titrated, usually from 37.9 µM), without a hit: top-dose activity change, negative = inhibition, most hits filed as inhibitors; actives 1.2% (n = 300,000); AID 540256; active means well fitted inhibition curve with a large enough effect; inconclusive means small, poorly fitted or top-dose-only effect, or effect the other way; inactive means flat fitted curve, though single readings scatter; tested in HEK293 cells; also: % is scaled to controls: 0 for no effect and ±100 for the full control effect; nearly all actives have a fitted effect of over 50% in size; luciferase read-out
SARS PLP yeast = SARS-CoV PLP inhibition in yeast. actives 0.19% (n = 330,000). Potency, µM (titrated, usually from 32.9 µM), inactives show at the top dose activity, positive = growth rescue. S. cerevisiae expressing SARS-CoV PLpro, growth rescue; control for the full effect not named in the record; active means well fitted rising curve with a large enough effect; inconclusive means small, poorly fitted or top-dose-only effect; inactive means no such curve, though single readings can be large or run the other way; also: 0% is about no effect; nearly all actives have a fitted effect of over 55% in size; growth read by luminescence after 48 h
Cruzain noTriton = blocks cruzain activity in detergent-free assay; purified cruzain, Z-FR-AMC fluorescence, no detergent; actives 2.3% (n = 200,000); Potency, µM, inactives show max response, negative = inhibition, hits mostly inhibitors; P25779;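 also: plate controls were enzyme without inhibitor for no effect and buffer without enzyme for full effect; nearly all actives have a fitted effect of over 40% in size; top concentration of the series not given in the record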
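Detergent-free condition (0.00005% Triton X-100) in acetate buffer pH 5.5 with DTT. 1.5 nM enzyme and compound were pre-mixed 15 min, then 2 uM Z-FR-AMC substrate added; reaction progress from fluorescence change between first and third reads (60 s).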
* marks the source's active call; other numbers are inactive results; ? = inconclusive; . = no result given; & = joins results of further samples; [ ] = another dose, or the depositor's remark. Unless noted, calls follow the shape of the dose curve; as a rule, active = well fitted curve in the direction sought with a large enough effect; inconclusive = small, poorly fitted or top-dose-only effect, or another doubt; inactive = no such curve, though single readings can be large; an effect the other way counts as inactive or inconclusive. Potency is read from the fitted curve at half-maximal effect.

mol	2A StopGo	Marburg entry inh	NS1 inh	Cruzain inh Det	RE007 growth inh	Lassa entry inh	SARS PLP yeast	Cruzain noTriton
CCOc1ccc(NC(=O)CCSc2nnc(C)s2)cc1	1%	5%[46.1 µM]	-2%	2.5%	21%	4%	1%	2%
COCCNC(=O)c1cc(OC)c(OC)cc1[N+](=O)[O-]	-19%	0%	-1%	.	2%	-5%	1%	.
COc1ccc(OC)c(S(=O)(=O)CC(=O)c2cc3ccc(OC)cc3oc2=O)c1	6%	.	22%	.	-22%	.	1%	.
CCc1nc(SCC(=O)NCc2ccc(F)cc2)c2c(=O)n(C)c(=O)n(C)c2n1	-19%	.	13%	4.2%	9%	.	?	1%
O=C(CSc1nncs1)Nc1ccc(N2CCCCC2)cc1	-6%	-34%	.	.	-17%	-2%	6%[6.58 µM]	.
O=C(CCCN1C(=O)/C(=C\c2ccccc2)SC1=S)N1CCOCC1	-22%	?	.	.	16%	-14%	-7%	.
O=CN1CCN(C=O)C(O)C1O (stereo unspecified)	-16%	-4%	.	.	10%	0%	.	.
Cn1nnc2sc3c(c2c1=O)CCCC3	-11%	-6%	-9%	2.4%	-10%	-1%	4%	-7%
CCC(C)n1c(SCC(=O)Nc2ccc3[nH]c(=O)[nH]c3c2)nc2ccccc2c1=O (stereo unspecified)	?	-12%	.	.	4%	-27%	.	.
C=CCNC(=S)Nc1cc(Cl)ccc1OC	-2%	23%	9%	0.0%	0%	-11%	24%	-10%
Fc1cccc(Cl)c1Cn1c(-c2cccs2)nc2ccccc21	0%	-25%[46.1 µM]	.	-10%	.	13%[46.1 µM]	.	5%
CC(=O)c1c(C)[nH]c(C(=O)CSc2nnc(-c3ccc(Cl)cc3)n2CC2CCCO2)c1C (stereo unspecified)	?	?	12%	-5.5%	-2%	-8%	11%	-8%
CC1=CC2=NC(=O)CC(C)(C(=O)N(CC(=O)NC(C)(C)C)C3CCCC3)N2C=C1 (stereo unspecified)	18%	0%&1%	5%	1.3%	-3%	-11%[14.3 µM]	-3%	0%
CCOCCCNC(=O)C(NC(=O)c1ccc2c(c1)OCO2)c1ccccc1 (stereo unspecified)	10%	1%[46.1 µM]	.	.	4%	-23%	-4%	.
Nc1nonc1C(=O)NCCNC(=O)c1ccc(Cl)cc1	15%	0%[46.1 µM]	1%	.	-15%	-15%	0%	.
O=P(c1ccccc1)(c1ccccc1)c1cc(S(=O)(=O)O)ccc1O	-6%	.	2%	.	1%	.	-1%	.
Cc1ccc(S(=O)(=O)Oc2ccc(/C=C(/NC(=O)c3ccccc3)C(=O)NC(C)C(=O)O)cc2)cc1 (stereo unspecified)	-9%	.	-2%	.	-14%	.	2%	.
Cc1nc(NC(=O)CSc2nnnn2Cc2ccccc2)sc1C	12%	-12%[46.1 µM]	-9%	-5.7%	-17%	28%	-9%	-9%
O=C(Cn1c(C(F)(F)F)nc2ccccc21)N=Nc1c(O)[nH]c2ccc(Br)cc12	-6%	.	2%	.	2%	.	1%	.
CC(C)(C)c1nnc2sc(SCC(=O)c3ccc4c(c3)OCCO4)nn2c1=O	?	?	.	.	11%	3%	0%	.
COc1ccc(-c2ccccc2)cc1NCc1ccc(OC)c(OC)c1	-12%	3%	?	-6.6%	-10%	22%	4%	?
COC(=O)C1=C(C)N=C2SCCC(=O)N2C1c1ccc(OC(=O)c2ccco2)cc1 (stereo unspecified)	-8%	11%	-5%	-11%	-6%	10%	-19%	2%
COC(=O)c1ccccc1C(=O)N1CCCC(CNC(=O)c2ccc(F)cc2)C1 (stereo unspecified)	10%	16%[46.1 µM]	-4%	.	1%	24%[46.1 µM]	-2%	.
CC1CCN(Cc2c(C(=O)N/N=C/c3ccc(C(C)C)cc3)nnn2-c2nonc2N)CC1	-2%	-9%[46.1 µM]	-11%	.	-13%	?	-1%	.
CCCc1nnc(NC(=O)CN2C(=O)c3ccccc3S2(=O)=O)s1	3%	1%	-43%	-0.2%	2%	0%	-2%	-7%
Cc1nc2ccc(Br)cn2c1C(=O)N/N=C\c1ccc(C(C)C)cc1	-15%	.	3%	.	8%	.	-8%	.
CCOC(=O)N1CCN(c2cc(NCCO)c([N+](=O)[O-])c3nonc23)CC1	-21%	3%	.	.	4%	?	3%	.
CC(O)CNCc1ccccc1C(F)(F)F (stereo unspecified)	-9%	0%[46.1 µM]	1%	.	9%	-8%[46.1 µM]	3%	.
Cc1cccc([C@@H]2[C@@H]3C(=O)N(Cc4ccccc4)C(=O)[C@@H]3[C@]3(Cc4ccc(Cl)cc4)C(=O)N(c4ccccc4)C(=O)N23)c1	-12%	.	21%	.	-3%	.	7%	.
O=C(CSc1nc2ccccc2o1)N/N=C/c1ccccc1	9%	?	3%	-3.5%	-8%	20%	21%	8%
O=C1C2C(c3ccccc3)CC=CC2[C@H](c2ccc3ccccc3c2)N1Cc1ccccc1 (stereo partly specified)	-23%	.	-53%	.	0%	.	-2%	.
O=C(CC(Nc1ccc(F)cc1)C(=O)O)c1ccccc1 (stereo unspecified)	29%	-4%	-9%	-2.6%	-14%	?	-8%	-8%
COc1ccc(OCC(=O)Nc2cc(NC(=O)c3ccco3)ccc2OC)cc1	-7%	-12%[46.1 µM]	-7%	.	18%	?	-1%	.
CCS(=O)(=O)n1nc(NCc2cccc(OC)c2)nc1NCc1cccc(OC)c1	?	0%[46.1 µM]	-4%	-3.8%	-6%	-10%	2%	6%
Cc1c(C(=O)C(=O)N2CCN(Cc3ccc4c(c3)OCO4)CC2)c2ccccc2n1C	7%	.	-12%	.	-10%	.	3%	.
C/C(CC(=O)NCc1ccccc1)=N\NC(=O)c1cnccn1	11%	9%	-1%	0.3%	22%	1%	29%	-14%
COc1ccc(N2C(=O)CC(N3CCN(c4nc5ccccc5s4)CC3)C2=O)cc1 (stereo unspecified)	?	1%	-20%	-7.4%	?	?	-18%	?
NC(=O)c1ccc(Nc2nnc(-c3ccc(O)cc3)c3ccccc23)cc1	-24%	?	.	.	-4%	-1%	1%	.
CN(C)S(=O)(=O)c1ccc(NCC2COc3ccccc3O2)c([N+](=O)[O-])c1 (stereo unspecified)	-3%	?	24%	-7.1%	-2%	-7%	17%	?
CCOC(=O)c1cnc2c(c(C)nn2C)c1Oc1ccc(OC)cc1	-17%	.	1%	.	3%	.	0%	.
COc1ccc(CNS(=O)(=O)c2cc3c4c(c2)C(C)C(=O)N4CCC3)cc1 (stereo unspecified)	-31%	.	13%	.	1%	.	1%	.
Cc1nnc(SCC(=O)NCc2ccccc2)s1	0%	2%	1%	3.0%	-2%	-2%	4%	-5%
Cc1ccc2oc(-c3cccc(NC(=O)Cc4ccc(Cl)cc4)c3)nc2c1	14%	.	.	-0.5%	.	22%[46.1 µM]	.	5%
Cc1ccc(C)c(N2CCN(c3nc4ccccc4c(=O)n3-c3ccc(Cl)cc3)CC2)c1	-19%	-28%[46.1 µM]	.	-1.0%	.	16%[46.1 µM]	.	-6%
Cc1cc(C)nc(SCC(=O)c2ccc([N+](=O)[O-])cc2)n1	0%	2%[46.1 µM]	14%	-1.1%	-27%	-17%	-1%	-3%
CCC(NC(=O)CCc1c(C)c2cc3c(C)c(C)oc3cc2oc1=O)C(=O)N[C@@H](Cc1ccccc1)C(=O)O (stereo partly specified)	0%	.	10%	.	3%	.	6%	.
COc1ccc(-c2cn[nH]c2-c2ccc(OCc3ccc([N+](=O)[O-])cc3)cc2O)cc1OC	16µM*	.	?	.	19%	.	6%	.
O=C(c1cccc(S(=O)(=O)N2CCOCC2)c1)N1CCN(c2ccccc2)CC1	-17%	1%	.	.	-6%	8%	0%	.
CCc1c(C)c2nncn2[nH]c1=O	7%	-7%	0%	2.0%	37%	5%	3%	-1%
O=C(CSc1nc(=O)[nH]c2c1CCCC2)Nc1ccc(F)cc1F	-23%	?	.	.	2%	20%	-14%	.

The list continues.
mol	2A StopGo	Marburg entry inh	NS1 inh	Cruzain inh Det	RE007 growth inh	Lassa entry inh	SARS PLP yeast	Cruzain noTriton
CCOc1ccc(NC(=S)N2CCC(N(C)CCN3CCOCC3)CC2)cc1	-15%	6%	-7%	-1.0%	8%	-3%	21%	9%
Cc1ccc(C2NC(=O)CCC2[N+](=O)[O-])cc1 (stereo unspecified)	-16%	14%[46.1 µM]	.	.	-23%	7%	3%	.
COc1ccc(C(=O)Nc2ccc3c(c2)OCCO3)cc1	.	6.5µM*	-7%	-0.2%	9%	5.2µM*	-5%	-1%
O=C(NCCOc1nc(N2CCOCC2)nc(N2CCOCC2)n1)Nc1ccc(Cl)cc1	-2%	?	-3%	-2.0%	-12%	1%	-2%	?
N=C1CCCN1c1ccccc1O	-4%	.	-2%	.	0%	.	5%	.
Cn1c(N)c(C(=O)COC(=O)CNS(=O)(=O)c2ccc(Cl)c(Cl)c2)c(=O)n(C)c1=O	-18%	-3%	-13%	-5.3%	3%	8%	19%	-3%
COCCCNC(=O)c1ccc2c(c1)NC(=O)C(C(C)C)N2 (stereo unspecified)	-3%	-18%[46.1 µM]	.	-5.3%	.	0%[46.1 µM]	.	-2%
CC1=C(C(=O)OCC(C)C)C(c2ccc(Br)s2)NC(=O)N1 (stereo unspecified)	-18%	?	-5%	.	0%	2%[46.1 µM]	1%	.
O=C(CCn1[nH]c(=O)c2ccccc2c1=O)NCCO	10%	11%	15%	1.8%	0%	3%	.	-7%
CC(C)CN=Cc1c(O)c([N+](=O)[O-])cc2oc3c(c12)CCCC3	32µM*	?	-32%	-12%	?	-16%	-99%	-4%
CCOC(=O)Cc1csc(NC(=O)CSc2nnc(Cc3csc(N)n3)n2C)n1	0%	3%	-5%	4.6%	15%	10%	-2%	-11%

Source: PubChem
